GIV Gai3 FP – inhibitors of GIV GBA-motif binding to rat Galpha-i3; P08753; Galpha-i3/FITC-GIV peptide fluorescence polarization, 90 min; stronger effect = lower value; scaled: aluminum fluoride 0%, vehicle 100%; percent of control (FP), % (test concentration not listed); 210,000 tested, 0.42% active; AID 1224905;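 active = replicate mean at 85% of control or lower, very high polarization wells dropped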;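 note: wells of about 15 µL received 100 nL stock; the first replicate is given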
Target sequence (P08753 whole entry, looked up): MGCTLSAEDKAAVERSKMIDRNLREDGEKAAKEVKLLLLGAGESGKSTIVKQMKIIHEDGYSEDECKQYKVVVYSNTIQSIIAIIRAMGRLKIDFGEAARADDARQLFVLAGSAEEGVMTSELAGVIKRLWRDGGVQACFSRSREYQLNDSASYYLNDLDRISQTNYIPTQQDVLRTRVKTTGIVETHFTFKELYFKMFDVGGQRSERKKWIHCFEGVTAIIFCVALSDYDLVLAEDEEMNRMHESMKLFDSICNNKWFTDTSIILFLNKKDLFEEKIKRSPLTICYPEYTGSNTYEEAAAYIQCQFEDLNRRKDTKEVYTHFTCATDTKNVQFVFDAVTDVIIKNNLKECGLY
Sa growth 42C – S. aureus growth inhibition; S. aureus RN4220 growth, OD600, 20 h, 42 °C; stronger effect = lower value; relative growth, % (test concentration not listed); 170,000 tested, 0.53% active;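 active = growth at 42 °C up to 50% and 20 or more points under that at 30 °C, or under 10% at both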;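 note: 300 nL library stock went into each well; scaled to the means of positive and negative controls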
HCMV NEC inh – disrupts HCMV UL50-UL53 complex binding. HTRF UL50-UL53 interaction, normalized percent inhibition. inhibition, % (no concentration beside the values). 190,000 tested, 0.15% active. AID 1918969;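 active = both replicates at 50% or more, plus weaker picks with an unusually low signal ratio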;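 note: stock transfer was 100 nL into about 20 µL; 0% = negative control wells and 100% = wells with untagged competitor protein; inactives centre near -12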
Sa growth 42C second temp – recorded beside Sa growth 42C, whose call it bears; relative growth, %; measured here: growth at 30 °C;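 optical density after 20 h as mean of two plates; 100% = untreated growth and lower means inhibition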
Starred values were filed as active, the others as inactive; . = not tested or not shown; & = joins results of further samples. Hits appear at their usual frequency; 0.83% or so of the library scored in one or more.

Start of the data: the first 3 entries as a preview:
SMILES | GIV Gai3 FP | Sa growth 42C | Sa growth 42C second temp | HCMV NEC inh
O=S(=O)(NC1Cc2ccccc2C1)c1ccc(-c2csnn2)cc1 | 98 | 89 | 91 | -23
CC1CCN(C(=O)C2CCN(c3nc4ccccc4n4cccc34)CC2)CC1 | 108 | . | . | -17
O=c1c(-c2ccccc2)c(N2CCOCC2)c1=O | 109 | . | . | -51

All compounds of this part, previewed entries included:
SMILES | GIV Gai3 FP | Sa growth 42C | Sa growth 42C second temp | HCMV NEC inh
O=S(=O)(NC1Cc2ccccc2C1)c1ccc(-c2csnn2)cc1 | 98 | 89 | 91 | -23
CC1CCN(C(=O)C2CCN(c3nc4ccccc4n4cccc34)CC2)CC1 | 108 | . | . | -17
O=c1c(-c2ccccc2)c(N2CCOCC2)c1=O | 109 | . | . | -51
Cn1nc(-c2ccc(OCC(=O)Nc3ccc(Cl)cc3)cc2)c2ccccc2c1=O | 108 | 89 | 100 | -184
CCc1nnc(NC(=O)c2sc3nc4ccc(OC)cc4cc3c2N)s1 | 135 | 101 | 89 | -24
COc1c(Cl)cc(C(=O)N(Cc2ccccc2F)C2CCS(=O)(=O)C2)cc1Cl (stereo not given) | 97 | 108 | 88 | -5
O=C(COc1ccc(Cl)cc1)NCc1n[nH]c(=S)n1-c1cccc(Cl)c1 | 102 | 88 | 63 | .
Cc1cc(NCCN2CCCCC2)c2ccc3ccccc3c2n1 | 108 | 76 | 80 | .
O=C(Nc1ccc(O)c(-c2nc3ccccc3o2)c1)c1ccccc1 | 97 | 77 | 98 | 4
S=c1[nH]c2ccccc2n1CCOc1ccccc1 | 102 | 92 | 79 | 0
O=C(c1cnn2c(-c3ccccc3)cc(-c3ccccc3)nc12)N1CCCC1 | 103 | . | . | -71
CCCNS(=O)(=O)c1ccc2c(c1)CCCN2C(C)=O | 102 | 87 | 84 | .
COc1ccc(N2CCN(S(=O)(=O)CCNC(=O)Cc3ccc(OC)c(OC)c3)CC2)cc1 | 103 | 93 | 86 | .
O=C(NC1CC1)C1CCN(c2cc(-c3cccc(F)c3)ncn2)CC1 | 100 | . | . | -22
Cc1cc(=O)oc2cc(OCC(O)CN(C)C3CCCCC3)ccc12 (stereo not given) | . | 77 | 84 | -19
Cc1ccc(Nc2nc(/N=C/N(C)C)n[nH]2)cc1C | . | 102 | 85 | -1
COc1ccc(-c2nc(SCC(=O)CSc3n[nH]c(-c4ccc(OC)cc4)n3)n[nH]2)cc1 | . | 105 | 123 | -7
O=C1NC(=Nc2ccc(O)cc2)S/C1=C\c1cccc(O)c1 | 103 | 109 | 83 | -5
Cc1cnc(NS(=O)(=O)c2cccc3nonc23)c(Br)c1 | 105 | 95 | 81 | -27
Cn1cc(Cl)c(C2NN=C(SCC(=O)c3ccc(Cl)cc3)S2)n1 (stereo not given) | 104 | 104 | 106 | -2
Cc1ccc(-c2cc(C(=O)N3CCC(C(N)=O)CC3)c3ccccc3n2)cc1 | . | 92 | 85 | -23
Cn1nnnc1SCC(=O)NC(=O)Nc1ccc2c(c1)OCCO2 | . | 71 | 94 | -27
Cc1nn(-c2ccccc2)c(C)c1/C=C/C(=O)OCC(=O)c1cccs1 | . | 86 | 71 | -29
Cc1snc(SCc2c(F)cccc2Cl)c1C#N | 102 | . | . | -14
CCOC(=O)c1c(C)n(-c2ccc(C)cc2C)c2ccc(OC(=O)/C=C/c3ccccc3)cc12 | 104 | . | . | 6
Cc1nnc2ccc(NCc3ccccc3)nn12 | 99 | 99 | 84 | 3
O=S(=O)(Nc1ccc(O)c(Sc2nc3ccccc3s2)c1)c1ccccc1 | 108 | 110 | 120 | .
CCOc1ccc(S(=O)(=O)c2cn(CC(=O)Nc3ccccc3C)c3ccc(F)cc3c2=O)cc1 | 97 | . | . | -14
O=S1(=O)C[C@H](NCCc2c[nH]c3ccccc23)[C@@H](S(=O)(=O)c2ccc(F)cc2)C1 | 105 | . | . | -26
CC1=C(C(=O)Nc2ccc(C)cc2)C2(CCCCC2)OC1=O | 103 | 104 | 92 | .
CCOC(=O)c1cnc2ccc(C(=O)OC)cc2c1Nc1ccc(OCc2ccccc2Cl)cc1 | 107 | 96 | 100 | 10
COC(=O)Cc1[nH]n(-c2ccccc2)c(=O)c1C(C)=NCc1cccnc1 | 105 | 66 | 68 | -6
Cc1ccc(-c2csc3ncnc(Sc4nnc(CN5CCCCCC5=O)o4)c23)cc1 | . | 82 | 87 | -17
O=C(CC1OCCN(Cc2ccccc2)C1=O)Nc1ccc(Br)cc1Br (stereo not given) | 101 | 71 | 45 | .
S=C(NCCN1CCOCC1)NC1CCSc2ccccc21 (stereo not given) | . | 99 | 87 | 14
O=C(O)CCNc1ncnc2ccc(Br)cc12 | 105 | 92 | 86 | -12
COc1ccc(CCCc2nnc(SCC(=O)Nc3ccc(C)c(C)c3)o2)cc1 | 105 | 105 | 84 | -24
CC1=C(C(=O)OCC2CCCCC2)C(c2cccc(Cl)c2Cl)CC(=O)N1 (stereo not given) | 104 | 107 | 93 | -4
O=C1CC(c2ccc(O)c(O)c2)c2c(nc(SCc3ccccc3)[nH]c2=O)N1 (stereo not given) | 104 | . | . | -11
COc1cc(OC)c(NC(=O)C2=C(C)C(=O)OC23CCN(C(C)=O)CC3)cc1Cl | 103 | 95 | 78 | .

Quoted at random: 6 records from the list
SMILES | GIV Gai3 FP | Sa growth 42C | Sa growth 42C second temp | HCMV NEC inh
COc1cc(OC)c(NC(=O)C2=C(C)C(=O)OC23CCN(C(C)=O)CC3)cc1Cl | 103 | 95 | 78 | .
CCc1nnc(NC(=O)c2sc3nc4ccc(OC)cc4cc3c2N)s1 | 135 | 101 | 89 | -24
O=S(=O)(NC1Cc2ccccc2C1)c1ccc(-c2csnn2)cc1 | 98 | 89 | 91 | -23
O=C(c1cnn2c(-c3ccccc3)cc(-c3ccccc3)nc12)N1CCCC1 | 103 | . | . | -71
COC(=O)Cc1[nH]n(-c2ccccc2)c(=O)c1C(C)=NCc1cccnc1 | 105 | 66 | 68 | -6
COc1ccc(-c2nc(SCC(=O)CSc3n[nH]c(-c4ccc(OC)cc4)n3)n[nH]2)cc1 | . | 105 | 123 | -7

Next records:
SMILES | GIV Gai3 FP | Sa growth 42C | Sa growth 42C second temp | HCMV NEC inh
COC(=O)c1cccc(NC(=O)Nc2cc(C(=O)NCc3cccc(F)c3)ccc2N2CCCC2)c1 | 99 | 86 | 87 | .
C=CCn1c(-c2ccccc2)nn(CNc2ccccc2Cl)c1=S | . | 92 | 90 | -17
O=C(Oc1ccccc1)c1cn(-c2ccccc2)nc1-c1cccnc1 | . | 94 | 99 | 0
O=C(NCc1ccccc1Cl)C1COc2ccccc2O1 (stereo not given) | 101 | 120 | 79 | -3
CN(C(=O)c1cc2c(Cl)nc3ccccc3c2s1)c1ccccc1 | 101 | 102 | 95 | .
O=C1C(c2ccc(I)cc2)=C(O)c2ccccc21 | 102 | 160 | 86 | -41
CCOc1ccc(CNCc2c(C(=O)O)c(C)n(Cc3cccc(OC)c3)c2C)cc1OC | 104 | 111 | 92 | -6
COc1ccc(S(=O)(=O)N2CCc3cc4ccc(C)cc4nc32)cc1C | 97 | . | . | -4
CN(C)c1ccc(C2NC(=S)NC3=C2N2CCC3CC2)cc1 (stereo not given) | 106 | 99 | 94 | -15
Cc1cccn2c(=O)cc(CN3CCN(S(=O)(=O)c4ccc5c(c4)OCCCO5)CC3)nc12 | . | 83 | 86 | -42
COc1ccc(-c2noc(-c3sccc3S(=O)(=O)N(C)c3ccccc3)n2)cc1OC | 108 | . | . | -18
Cc1nn(CC(C)C)c(Cl)c1C(=O)N1CCCc2ccccc21 | . | 88 | 97 | -18
COC(=O)c1c(NC(=O)CCCOc2ccccc2C)sc2c1CCC(C)C2 (stereo not given) | 104 | 109 | 89 | .
COCC(C)NC(=O)Nc1c[nH]c2ccccc12 (stereo not given) | 102 | 78 | 51 | -54
O=C(CN1C(=O)CSc2ccc(C(=O)N3CCCC3)cc21)NCCC1=CCCCC1 | 110 | . | . | -20
CN(Cn1c(=O)oc2cc(Br)ccc21)C1CCCCC1 | 106 | 86 | 17 | -28
CCn1cc(C(=O)N2CCN(c3cc(C)ccc3C)CC2)c(=O)c2cc(S(=O)(=O)N(C)C3CCCCC3)ccc21 | 102 | 96 | 86 | -18
O=C(CCn1cnc2c([nH]c3ccccc32)c1=O)N1CCN(c2ccccn2)CC1 | 105 | . | . | -21
O=C(CSc1ccccc1)Nc1cccc2nsnc12 | 101 | . | . | -53
CC(C)C(=O)Nc1ccc2c(c1)NC(=O)C(C)O2 (stereo not given) | 107 | . | . | -18
O=C1NCCNC1Cc1ccc2ccccc2n1 (stereo not given) | . | 98 | 94 | -7
CCCCOC(=O)c1ccc(NC(=O)c2cnccn2)cc1 | 98 | 95 | 82 | -24
COc1ccc(Nc2ncnc3ccccc23)cc1 | 101 | 96 | 68 | .
COC(=O)c1sccc1NC(=S)N1CCCC1 | 111 | 112 | 93 | .
Cc1cc(C)cc(NS(=O)(=O)c2cc3c(cc2C)NC(=O)CO3)c1 | 108 | 116 | 85 | .
CN1C(=O)C(c2c(-c3ccccc3)[nH]c3c2c(=O)n(C)c(=O)n3C)c2ccccc21 (stereo not given) | 106 | . | . | 36
CCc1nnc(-c2cc(S(=O)(=O)N3CCOCC3)c[nH]2)o1 | 103 | . | . | 9
Cc1nnc(NC(=O)CSc2nnc(CNC(=O)C34CC5CC(CC(C5)C3)C4)n2-c2ccccc2)s1 | 102 | 101 | 107 | 17
Cc1ccc(NC(=O)C2CCN(S(=O)(=O)c3ccc4c(c3)C(C)(C)C(=O)N4C)CC2)cc1 | 113 | . | . | -3
O=C(O)Cn1nnc(-c2ccccc2)n1 | 97 | 96 | 94 | .
CN(CCC#N)c1ncnc2sccc12 | . | 81 | 93 | -3
CCCSc1ncc(Cl)c(C(=O)Nc2ccc(S(=O)(=O)N3CCCCC3C)cc2)n1 (stereo not given) | 107 | 98 | 79 | -11
CC(C)c1cnc2c(c1SCC(=O)NCc1ccccc1)c(=O)n(C)c(=O)n2C | 102 | 92 | 91 | .
Cc1ccc(Nc2nc3ccccc3c3nncn23)cc1C | 105 | 100 | 83 | 0
COc1cc(OC)c(NC(=O)C2CCN(S(=O)(=O)c3ccc4c(c3)oc(=O)n4C)CC2)cc1Cl | 102 | 105 | 89 | -20
COc1cc(SC)ccc1C(=O)Nc1ccccc1C(N)=O | . | 83 | 92 | 16
Cc1nc(-c2ccccc2O)n(-c2ccccc2)n1 | 100 | 103 | 77 | -14
Cc1ccc(NC(=O)c2ccc(CN3CC(=O)N4CCCCC4C3=O)cc2)c(Cl)c1 (stereo not given) | 109 | 86 | 96 | .
Cc1nc2nc3c(c(N4CCN(c5ccc(F)cc5)CC4)n2n1)CCC3 | 97 | . | . | 1
O=C(Nc1ccccc1C(F)(F)F)C1CCN(c2nnc(-n3cccc3)s2)CC1 | 108 | 111 | 103 | .
O=C(c1ccc(Cl)cc1)N1CCN(C(c2ccccc2)c2ccccc2)CC1 | . | 85 | 68 | -17
O=C(Nc1ccccc1)C(Cc1nnc(-c2ccc(F)cc2)o1)C(=O)c1ccccc1 (stereo not given) | . | 87 | 89 | -17
O=C(Nc1ccon1)c1cc2ccccc2oc1=O | 107 | 98 | 97 | -57
CN(C(=O)Nc1cnccc1C(F)(F)F)C1CCCCC1 | 103 | 91 | 100 | -8
COc1cccc(N2C(=O)c3ccc(C(=O)Nc4c[nH]c(=O)[nH]c4=O)cc3C2=O)c1 | 95 | 100 | 83 | -24
CNCCC(Oc1ccccc1OC)c1ccccc1 (stereo not given) | 106&97 | 89 | 84 | -23&13&-6&-10
O=C1COc2ccc(Cl)cc2N1Cc1nc(Cn2cnc3ccccc3c2=O)no1 | 100 | . | . | -38
CC(C)c1cc(C(C)C)c(N)c(C(C)C)c1 | 104 | 81 | 94 | .
COc1ccc(N2CC(C(=O)N/N=C/c3ccccc3)CC2=O)cc1 (stereo not given) | 116 | 103 | 91 | 1
CCN1CCN(c2c(C(=O)c3ccc(C)c(C)c3)cnc3ccc(C)cc23)CC1 | 111 | 90 | 74 | .
Continuation:
SMILES | GIV Gai3 FP | Sa growth 42C | Sa growth 42C second temp | HCMV NEC inh
CCOCCCNC(=O)c1cn(CC)c2ccc(S(=O)(=O)N3CCOCC3)cc2c1=O | 107 | 96 | 88 | -5
C#CCn1c(=O)n(-c2cccc(Cl)c2C)c(=O)c2c3c(sc21)CN(C(C)=O)CC3 | 106 | 103 | 75 | -11
COC(=O)c1c(C)[nH]c(C)c1-c1ccn[nH]1 | 99 | 72 | 107 | 4
COCC(=O)Nc1cc(C)cn(Cc2c(F)cccc2Cl)c1=O | 99 | 88 | 90 | -15
O=C(CSCCc1ccccn1)Nc1ccc(Br)cc1F | 106 | 77 | 81 | .
O=C(OCC(=O)N1CCN(c2ccccc2)CC1)c1ccc(-n2cnnn2)cc1 | . | 94 | 95 | -14
O=C(NCCN1CCOCC1)C1CCC(CNS(=O)(=O)c2ccc(Cl)cc2)CC1 (stereo not given) | 101 | 111 | 92 | -20
CCOC(=O)c1c(-c2ccccc2)csc1NC(=O)c1nc(SCC)ncc1Cl | 103 | 106 | 92 | -4
COc1cc(CNC(=O)c2ccccc2SC)cc(OC)c1OC | . | 103 | 83 | -14
CCN(c1nc(N)c(C(=O)N=C(N)N)nc1Cl)C(C)C | 107 | . | . | -100
Cc1cccc(NC(=O)Cn2nc(C)c3nn(-c4ccc(Cl)cc4)c(C)c3c2=O)c1C | 100 | 104 | 59 | .

From PubChem BioAssay
